E coli growth: blocks Escherichia coli growth; OD600, 23 h; stronger effect = lower value; OD600 absorbance (concentration not given with the values); actives 0.21% (n = 330,000); AID 1053175;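 active means OD600 absorbance below the run mean of sample wells minus 3.6 SD, in any replicate, cut at about 0.56 in these data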;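 further: stock transfer was 300 nL into about 60 µL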
MLL AF4-AF9 inh: inhibitors of human MLL-AF4/AF9 interaction; P42568; AlphaScreen, biotin-AF4 peptide binding to FLAG-AF9; inhibition, % at 10 µM; actives 0.47% (n = 350,000);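 active means every replicate reaching a set inhibition limit, whatever the replicate mean, cut at about 25% in these data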;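 further: 0% = plate neutral control median and 100% = total signal loss; the record names both 10 and 1 µM as test concentration; the first replicate is given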
Target sequence (P42568 whole entry, looked up): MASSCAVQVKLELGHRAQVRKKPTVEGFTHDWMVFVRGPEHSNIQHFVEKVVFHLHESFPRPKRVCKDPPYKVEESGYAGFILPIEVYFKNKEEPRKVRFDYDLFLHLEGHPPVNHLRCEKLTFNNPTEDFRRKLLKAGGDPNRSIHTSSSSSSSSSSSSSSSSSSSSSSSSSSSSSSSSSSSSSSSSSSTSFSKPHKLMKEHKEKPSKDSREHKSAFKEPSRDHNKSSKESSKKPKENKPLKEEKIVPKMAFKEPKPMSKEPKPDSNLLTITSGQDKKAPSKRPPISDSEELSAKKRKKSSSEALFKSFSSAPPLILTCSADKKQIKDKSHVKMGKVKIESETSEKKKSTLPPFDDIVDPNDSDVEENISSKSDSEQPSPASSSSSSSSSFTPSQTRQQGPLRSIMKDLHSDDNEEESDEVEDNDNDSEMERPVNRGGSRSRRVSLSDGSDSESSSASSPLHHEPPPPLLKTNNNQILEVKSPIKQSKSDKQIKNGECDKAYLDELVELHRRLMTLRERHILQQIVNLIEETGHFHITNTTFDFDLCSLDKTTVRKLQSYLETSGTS
ALR inh: human ALR oxidase inhibition via reduced H2O2; P55789; purified ALR, DTT oxidation, H2O2 HRP-luminol luminescence; inhibition, % (no concentration beside the values); actives 3.8% (n = 290,000); AID 485317;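 active means mean and each replicate at 75% or more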;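 further: stock transfer was 7.5 nL into about 7.5 µL; 0% = neutral wells and 100% = wells with inactivated enzyme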
Target sequence (P55789 whole entry, looked up): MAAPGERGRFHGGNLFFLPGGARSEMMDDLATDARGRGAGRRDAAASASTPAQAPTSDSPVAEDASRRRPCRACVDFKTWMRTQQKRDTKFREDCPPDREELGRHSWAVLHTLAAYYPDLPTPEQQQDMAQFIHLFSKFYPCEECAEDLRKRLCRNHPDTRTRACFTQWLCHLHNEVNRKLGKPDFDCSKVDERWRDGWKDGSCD
Vif A3G: inhibitors of Vif binding to APOBEC3G peptide, primary screen, biochemical, TR-FRET, GST-Vif 1-94, biotin-A3G peptide, dose response retest (AID 1117319). TR-FRET GST-Vif / biotin-A3G peptide binding; higher % means a stronger effect; test concentration not given here; strong numbers were not always called active. inhibition, %, or IC50 in µM where a hit was titrated. actives 0.57% (n = 260,000);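 active means above the screen mean plus three standard deviations and confirmed in dose response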;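 further: Vif residues 1-94 fused to GST binding biotinylated APOBEC3G peptide 110-148; 0% = full assay without inhibitor and 100% = GST in place of GST-Vif; retest series ran down from 100 µM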
HNF4A DNA FP: change in binding of human HNF4 alpha to DNA; P41235; HNF4a-FITC DNA binding, fluorescence polarization, 1 h; activity change, % at 10 µM; actives 0.3% (n = 360,000); in the data active means activity change above about 30%, passing the limit was not always enough;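 further: controls were the assay level and a saturating level of protein; the project sought stronger binding though the title names inhibitors; some compounds called inactive have numbers as strong as hits; positive values seem to mean higher polarization but the record does not say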
Ecoli rRNA inh: selective bacterial rRNA inhibition in E. coli | E. coli WT GFP vs humanized-ribosome RFP mutants, fluorescence, 24 h; stronger effect = lower value; DMSO median 0, no signal -100 | GFP signal change (wild-type ribosome), % (no concentration beside the values) | actives 1.6% (n = 350,000);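 active means significant combined selectivity score with lowered wild-type GFP, culture density cut under 30%, mutant RFP and density less affected; inactive means any of these conditions unmet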; further: one replicate is shown; some compounds called inactive have numbers as strong as hits
FGF22 binding: binders of recombinant human FGF22 by thermal shift | Q9HCT0 | actives 1.5% (n = 340,000) | SYPRO orange fluorescence; percent of sucrose octasulfate shift, DMSO zero | AID 651658 | calls only at 9.99 µM;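 active means melting point raised past a set limit in the mean and every replicate; three in four hits are not shown here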
Target sequence (Q9HCT0 whole entry, looked up): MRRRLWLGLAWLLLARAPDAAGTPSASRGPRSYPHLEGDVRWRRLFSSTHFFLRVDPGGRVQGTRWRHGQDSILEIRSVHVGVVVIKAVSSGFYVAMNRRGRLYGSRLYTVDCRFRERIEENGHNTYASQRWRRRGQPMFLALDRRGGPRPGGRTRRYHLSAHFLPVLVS
Ecoli rRNA inh OD600: further read-out of Ecoli rRNA inh, marked with its call; OD600 change, %; measured here: OD600 growth;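 optical density of the mix in the first replicate; 0 = DMSO median and -100 = no signal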
Ecoli rRNA inh RFP: recorded beside Ecoli rRNA inh, whose call it bears; RFP signal change, %; measured here: RFP humanized mutant strains;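 first replicate; 0 = DMSO median and -100 = no signal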
* = called active by the depositor; i = inactive; . = not tested or not shown. Only part of the results is shown; rates above refer to the full screens.

SMILES | E coli growth | MLL AF4-AF9 inh | ALR inh | Vif A3G | HNF4A DNA FP | Ecoli rRNA inh | Ecoli rRNA inh OD600 | Ecoli rRNA inh RFP | FGF22 binding
CC(C)CC#Cc1cnc2c(c1)C(=O)N([C@H](C)CO)C[C@@H](C)[C@H](CN(C)S(=O)(=O)c1cn(C)cn1)O2 | . | -0.5 | . | . | . | -2 | -3 | -2.0 | i
CCC(=O)Nc1ccc(Cl)c(NC(=S)NC(C)=O)c1 | 0.65 | -3.0 | 5 | -1% | 1.1 | -1 | -1 | -2.3 | i
Cc1cccc(NC(=O)/C(C#N)=C/c2ccccc2Cl)n1 | 0.69 | 4.6 | 12 | -11% | 0.9 | -22* | -12* | 0.6* | i
COc1cccc(C(=O)NC2CCN(CC(=O)NCc3ccccc3F)CC2)c1 | 0.7 | -4.8 | 0 | . | 1.2 | -2 | 3 | -3.0 | i
C[C@H]1CN([C@@H](C)CO)C(=O)c2cc(/C=C/c3ccccc3)cnc2O[C@H]1CN(C)C(=O)C1CCOCC1 | . | -5.5 | . | . | . | 2 | 11 | -1.4 | i
COc1ccc(Cl)cc1NC(=O)CN1CCN(S(=O)(=O)N2CCC(C)CC2)CC1 | 0.63 | -1.4 | . | . | 0.4 | 1 | -11 | -0.3 | i
Cc1ccc(C(=O)c2c3ccc(N)cc3nn2CCC(N)=O)cc1 | 0.67 | 4.2 | -56 | . | 3.6 | 0 | 5 | -6.7 | i
CC1(C(=O)Nc2ccc3c(c2)OCCO3)CN(S(C)(=O)=O)CC(=O)N1CCc1c[nH]c2ccccc12 (centres undefined) | . | 7.8 | . | . | 1.2 | 1 | 7 | 4.3 | i
Cc1ccsc1/C=N\NC(=O)Cn1nnc2ccccc21 | . | . | 1 | 11% | -3.0 | . | . | . | .
C[C@H]1CN([C@@H](C)CO)C(=O)c2cc(-c3cccc(C#N)c3)cnc2O[C@@H]1CN(C)Cc1cccnc1 | . | -8.0 | . | . | . | 2 | 2 | -4.4 | i
COc1ccc(-c2cnc3c(c2)C(=O)N([C@@H](C)CO)C[C@H](C)[C@H](CN(C)Cc2ccccc2)O3)cc1 | . | 1.8 | . | . | . | 3 | 8 | -0.4 | i
Oc1ccc2ccccc2c1/C=N/c1nc2c(s1)CCCC2 | . | . | -13 | 4% | 0.9 | . | . | . | .
COc1ccc(-c2cc(C(=O)N3CCCCCC3)c3ccccc3n2)cc1 | 0.69 | -1.4 | . | 4% | 5.0 | -21 | -25 | -1.1 | i
CC(=O)Nc1ccc(S(=O)(=O)Nc2ccc(S(=O)(=O)Nc3ncccn3)cc2)cc1 | 0.68 | -8.1 | 0 | 3% | 0.6 | 4 | 2 | -1.9 | i
N#Cc1ccc(C(=O)N(Cc2ccccc2)c2ccccc2)cc1 | 0.66 | -2.0 | -1 | . | 3.5 | -2 | -20 | -9.0 | .
C[C@@H]1CN([C@@H](C)CO)S(=O)(=O)c2ccc(-c3ccccc3F)cc2O[C@H]1CN(C)C | . | -0.9 | . | . | . | -4 | -1 | -1.6 | i
Cc1nc2sc(-c3ccccc3)nn2c(=O)c1Br | 0.69 | 0.5 | -5 | -7% | 5.0 | . | . | . | i
CCc1ccc(OCC(=O)NNC(=O)CSc2ncnc3sc(C)c(C)c23)cc1 | 0.69 | . | -7 | -2% | -10 | . | . | . | .
CCCn1c(=O)c2c(C(F)(F)F)cc(-c3cccs3)nc2n(CCC)c1=O | 0.7 | -1.8 | -3 | 10% | 0.8 | 3 | 10 | -4.5 | i
CCCCc1c(C)nc2nc(SCc3ccc(Cl)cc3)[nH]n2c1=O | 0.66 | 0.3 | 1 | -3% | -2.6 | -52 | -76 | -15 | i
CO[C@@H]1CN(C)C(=O)c2ccc(NC(=O)Nc3ccccc3Cl)cc2OC[C@@H](C)N(Cc2ccccc2C(=O)O)C[C@H]1C | . | -9.4 | . | . | . | -1 | 3 | 0.8 | i
CNC(=O)NC(=O)COC(=O)c1ccccc1OCc1ccccc1 | 0.7 | 0.6 | -1 | -5% | 1.9 | -10 | -7 | 1.7 | i
COc1ccc(OC)c(NC(=O)COC(=O)/C=C/c2ccco2)c1 | 0.71 | -8.4 | -5 | . | -4.0 | 2 | -6 | 1.2 | i
CC1(C)C=C2[C@H]3CC[C@@H]4[C@@]5(C)CCC(=O)C(C)(C)[C@@H]5CC[C@@]4(C)[C@]3(C)CC[C@@]2(C(=O)O)CC1 | . | -1.4 | 0 | -1% | -3.7 | 3 | -6 | 17 | i
CCOC(=O)N1CCN(Cc2cn3ccccc3n2)CC1 | 0.69 | . | -9 | -1% | 0.0 | . | . | . | .
Additional results follow:
SMILES | E coli growth | MLL AF4-AF9 inh | ALR inh | Vif A3G | HNF4A DNA FP | Ecoli rRNA inh | Ecoli rRNA inh OD600 | Ecoli rRNA inh RFP | FGF22 binding
Brc1ccc(CN2C3=NCCCN3c3ccccc32)cc1 | 0.65 | -0.8 | -5 | -10% | -4.7 | -5 | -7 | -3.2 | i
CNC[C@H]1Oc2cc(-c3cccc(C(=O)N(C)C)c3)ccc2S(=O)(=O)N([C@H](C)CO)C[C@@H]1C | . | -7.3 | . | . | . | 0 | 2 | -1.8 | i
O=S(=O)(NCc1cc(-c2ccccc2)no1)c1ccccc1Cl | 0.66 | -2.0 | -5 | 3% | 1.4 | -21* | -15* | -0.6* | i
CCCC1CCc2[nH]nc(C(=O)NN)c2C1 (centres undefined) | 0.69 | 1.2 | 42 | . | -0.5 | 1 | 0 | -0.1 | i
C[C@@H]1CN([C@H](C)CO)C(=O)c2cccc(NC(=O)c3nc4ccccc4s3)c2O[C@@H]1CN(C)CC1CCCCC1 | . | 16 | . | . | . | -5 | -6 | 3.2 | i
CC(C)Cn1c(SCC(=O)N2CC(=O)Nc3ccccc32)nc2ccccc21 | 0.65 | . | -19 | . | -1.4 | . | . | . | .
CCCCNCc1nc2ccccc2c(=O)[nH]1 | 0.68 | 3.1 | 5 | -4% | 0.3 | 10 | 5 | 2.2 | i
C=CCn1c(SCC(N)=O)nc2nc3c(cc2c1=O)COC(C)(C)C3 | 0.67 | -3.9 | 0 | -5% | -1.0 | 4 | -3 | -0.8 | i
Cc1cc(C)c(NC(=O)CSc2ccc(-c3cccnc3)nn2)c(C)c1 | 0.72 | -0.8 | 0 | 2% | -0.4 | 18 | 2 | 1.2 | i
N/C(=N\OC(=O)c1cccnc1)c1ccc(Cl)cc1Cl | 0.67 | -0.2 | -3 | 3% | 4.0 | 5 | 7 | -3.0 | i
CC(=O)N(C)C[C@@H]1Oc2cc(Br)ccc2S(=O)(=O)N([C@@H](C)CO)C[C@@H]1C | . | 1.1 | . | . | . | 5 | -2 | -2.6 | i
COc1ccc(Cn2c(=O)[nH]c3cc(C(=O)NCCc4ccc(S(N)(=O)=O)cc4)ccc3c2=O)cc1 | 0.75 | -2.0 | -1 | -7% | -1.7 | 19 | 17 | -1.3 | i
O=C(C[C@H]1CC[C@H]2[C@@H](COC[C@@H](O)CN2Cc2cccc(-c3ccncc3)c2)O1)N1CCOCC1 | . | 1.6 | . | . | . | 1 | 4 | -3.7 | i
CCc1ccc(C(=O)NNC(=O)c2n[nH]c(=O)c3ccccc23)cc1 | 0.67 | -5.8 | 28 | . | -2.0 | 6 | -10 | 3.6 | i
COc1cccc2cc(C(=O)NCc3ccccn3)c(=O)oc12 | 0.67 | . | -1 | -2% | -4.4 | . | . | . | .
CCc1cccc(NS(=O)(=O)c2c(C)n[nH]c2C)c1 | 0.7 | . | -5 | 3% | 0.8 | . | . | . | .
COCC#Cc1ccc([C@@H]2[C@H]3CN(C(=O)COC)CCCCN3[C@H]2CO)cc1 | . | -8.9 | . | . | . | 4 | -5 | -1.1 | i
CCn1cc(C(=O)N2CCc3ccccc32)c(=O)c2cc(S(=O)(=O)N3CCCC3)ccc21 | 0.68 | -4.2 | -8 | -3% | 1.1 | 1 | -1 | -0.4 | i
CC(C)CC#Cc1ccc2c(c1)O[C@H](CN(C)S(C)(=O)=O)[C@@H](C)CN([C@H](C)CO)S2(=O)=O | . | 0.4 | . | . | . | -8 | -13 | -0.9 | i
O=C(O)c1cc(NS(=O)(=O)c2ccc(N3CCOCC3)c([N+](=O)[O-])c2)cc(C(=O)O)c1 | 0.73 | . | 1 | . | -2.6 | . | . | . | .
C[C@H](CO)N1C[C@H](C)[C@H](CN(C)C(=O)Nc2ccccc2)Oc2ccc(NC(=O)CCCN(C)C)cc2C1=O | . | -0.1 | . | . | . | 2 | 6 | -1.0 | i
CCOC(=O)C1C(=O)C=C(c2cccs2)CC1c1ccccc1 (centres undefined) | 0.68 | 12 | . | . | -1.3 | -28* | -20* | 0.3* | i
CCn1nc(C)cc1-c1nnc(SCC(=O)Nc2ccccc2)n1CCCOC | 0.67 | 3.6 | -9 | 11% | 0.6 | 2 | 7 | 2.3 | i
Cc1c(CCC(=O)NCCC(=O)O)c(=O)oc2c(C)c3oc4c(c3cc12)CCCC4 | 0.65 | -1.5 | 98* | -10% | -4.6 | -24 | -48 | -9.1 | i
Cc1ccc(CNC(=O)c2cc(=O)c3ccc(C)cc3o2)cc1 | 0.68 | -1.1 | -2 | 4% | -5.0 | 6 | 21 | -2.1 | i

13 compounds out of the list, ordered by SMILES length, rising.
SMILES | E coli growth | MLL AF4-AF9 inh | ALR inh | Vif A3G | HNF4A DNA FP | Ecoli rRNA inh | Ecoli rRNA inh OD600 | Ecoli rRNA inh RFP | FGF22 binding
Brc1ccc(CN2C3=NCCCN3c3ccccc32)cc1 | 0.65 | -0.8 | -5 | -10% | -4.7 | -5 | -7 | -3.2 | i
N/C(=N\OC(=O)c1cccnc1)c1ccc(Cl)cc1Cl | 0.67 | -0.2 | -3 | 3% | 4.0 | 5 | 7 | -3.0 | i
COc1cccc2cc(C(=O)NCc3ccccn3)c(=O)oc12 | 0.67 | . | -1 | -2% | -4.4 | . | . | . | .
CCOC(=O)C1C(=O)C=C(c2cccs2)CC1c1ccccc1 (centres undefined) | 0.68 | 12 | . | . | -1.3 | -28* | -20* | 0.3* | i
Cc1ccc(CNC(=O)c2cc(=O)c3ccc(C)cc3o2)cc1 | 0.68 | -1.1 | -2 | 4% | -5.0 | 6 | 21 | -2.1 | i
CCn1nc(C)cc1-c1nnc(SCC(=O)Nc2ccccc2)n1CCCOC | 0.67 | 3.6 | -9 | 11% | 0.6 | 2 | 7 | 2.3 | i
Cc1cc(C)c(NC(=O)CSc2ccc(-c3cccnc3)nn2)c(C)c1 | 0.72 | -0.8 | 0 | 2% | -0.4 | 18 | 2 | 1.2 | i
CC(C)Cn1c(SCC(=O)N2CC(=O)Nc3ccccc32)nc2ccccc21 | 0.65 | . | -19 | . | -1.4 | . | . | . | .
COCC#Cc1ccc([C@@H]2[C@H]3CN(C(=O)COC)CCCCN3[C@H]2CO)cc1 | . | -8.9 | . | . | . | 4 | -5 | -1.1 | i
CCn1cc(C(=O)N2CCc3ccccc32)c(=O)c2cc(S(=O)(=O)N3CCCC3)ccc21 | 0.68 | -4.2 | -8 | -3% | 1.1 | 1 | -1 | -0.4 | i
O=C(C[C@H]1CC[C@H]2[C@@H](COC[C@@H](O)CN2Cc2cccc(-c3ccncc3)c2)O1)N1CCOCC1 | . | 1.6 | . | . | . | 1 | 4 | -3.7 | i
C[C@H](CO)N1C[C@H](C)[C@H](CN(C)C(=O)Nc2ccccc2)Oc2ccc(NC(=O)CCCN(C)C)cc2C1=O | . | -0.1 | . | . | . | 2 | 6 | -1.0 | i
C[C@@H]1CN([C@H](C)CO)C(=O)c2cccc(NC(=O)c3nc4ccccc4s3)c2O[C@@H]1CN(C)CC1CCCCC1 | . | 16 | . | . | . | -5 | -6 | 3.2 | i

Bioassay records deposited in PubChem BioAssay by several laboratories.
